Mtb bLac sens: beta-lactam sensitization of Mtb H37Rv. inhibition, % at 25 µM. hit rate 0.27% among 330,000. M. tuberculosis H37Rv growth with meropenem, percent inhibition; hits of this screen are not shown here;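 active means about 74% or more and at least 40 points above the plate without the antibiotic, then above 30% in a dose series; inconclusive means first-round hits that could not be retested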;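 further: growth measured after seven days incubation then overnight dye step; 0% = bacteria only wells and 100% = bacteria with antibiotic; twin plates without the antibiotic show which effects depend on it; some results filed as inactive read as strong as hits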
Arbovirus inh: arbovirus infection inhibition | arbovirus infection cell-based antiviral screen | hit rate 0.37% among 200,000 | inhibition, % at 10 µM;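 active means inhibition from about 30%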;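 further: bluetongue infection of BSR cells; cell survival read as ATP light after 72 h; 0% = infected wells without compound and 100% = uninfected wells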
RecA intein inh: blocks M. tuberculosis RecA intein splicing; P9WHJ3; cell-free RecA intein splicing, fluorescence; inhibition, %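 (about 9 µM by stock and volumes)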; hit rate 0.75% among 290,000; in the data active means inhibition above about 30%; inconclusive means no clear call, values can overlap the other calls;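 further: 0% = vehicle wells and 100% = reference inhibitor control wells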
Target sequence (P9WHJ3 whole entry, looked up): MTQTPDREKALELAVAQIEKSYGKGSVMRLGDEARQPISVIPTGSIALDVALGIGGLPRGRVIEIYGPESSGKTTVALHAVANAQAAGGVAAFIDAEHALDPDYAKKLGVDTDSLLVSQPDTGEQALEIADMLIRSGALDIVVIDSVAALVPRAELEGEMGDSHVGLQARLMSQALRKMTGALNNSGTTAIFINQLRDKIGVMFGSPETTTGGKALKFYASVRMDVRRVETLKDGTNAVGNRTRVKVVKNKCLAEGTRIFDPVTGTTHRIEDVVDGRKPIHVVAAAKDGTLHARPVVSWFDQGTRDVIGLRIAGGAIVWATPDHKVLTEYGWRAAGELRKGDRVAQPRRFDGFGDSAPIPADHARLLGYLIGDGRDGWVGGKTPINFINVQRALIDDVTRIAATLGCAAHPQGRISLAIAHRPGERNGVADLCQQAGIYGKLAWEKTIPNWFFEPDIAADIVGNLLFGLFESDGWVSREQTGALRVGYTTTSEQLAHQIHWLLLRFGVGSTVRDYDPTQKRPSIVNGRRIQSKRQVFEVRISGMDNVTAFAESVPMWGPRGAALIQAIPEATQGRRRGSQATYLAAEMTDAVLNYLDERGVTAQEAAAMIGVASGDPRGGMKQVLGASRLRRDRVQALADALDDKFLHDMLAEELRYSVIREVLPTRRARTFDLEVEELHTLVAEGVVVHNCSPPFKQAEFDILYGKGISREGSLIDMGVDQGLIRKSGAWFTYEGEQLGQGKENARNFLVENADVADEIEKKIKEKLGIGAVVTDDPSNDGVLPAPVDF
YopH inh: blocks Yersinia enterocolitica YopH tyrosine phosphatase. fluorescence Ex485/Em525. inhibition, %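 (about 10 µM by stock and volumes)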. hit rate 0.16% among 140,000. AID 898;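 active means inhibition of 50% or more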;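 further: controls were vehicle for no effect and minimum signal wells for full effect; inactives centre near -20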
Mtb growth: M. tuberculosis H37Rv growth inhibitors, H37Rv strain (AID 1626) | M. tuberculosis H37Rv growth inhibition; higher % means a stronger effect | inhibition, % at 10 µM; hits with a dose series show IC50 in µM | hit rate 0.95% among 220,000;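 active means confirmed in a dose series; inconclusive means inhibition above 80% but not taken into the dose series; inactive means below 80% or under 30% at every dose of the series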;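 further: bacteria incubated seven days before Alamar blue readout; 0% = bacteria only wells and 100% = bacteria with antibiotic wells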
Arbovirus inh repeat: recorded beside Arbovirus inh, whose call it bears; inhibition, %; measured here: 10K subset replicate screen; many hits read low in the repeat;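 first of two repeat runs on a subset; 0% = infected and 100% = uninfected wells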
The depositor's hits bear a star; ? = inconclusive; nt = not tested or not shown. The list is partial; rates above refer to the full screens.

SMILES	Mtb bLac sens	Arbovirus inh	RecA intein inh	YopH inh	Mtb growth	others
COc1cccc(CNC(=O)CCS(=O)(=O)c2ccc3c(c2)oc(=O)n3C)c1	-5.5	nt	-2.6	nt	nt
Cc1nonc1CN(C)C(=O)c1ccc(OC2CCN(C(=O)c3cccnc3)CC2)cc1	-2.4	2.2	0.6	nt	-1.2%
COc1ccc(CCC(=O)NCc2cccc(C(F)(F)F)c2)cc1	-1.4	nt	1.7	nt	nt
O=C(NCCN1CCOCC1)C(=O)NCc1ccc2c(c1)OCO2	-2.6	-1.9	-5.1	nt	4.7%
CCC(C(=O)O)N1C(=O)/C(=C/C(C)=C/c2ccccc2)SC1=S (configuration not stated)	-8.8	nt	11.0	nt	-7.3%
CCOC(=O)Nc1c(C(=O)OC)[nH]c2cc(OC)ccc12	-2.5	nt	1.7	9.0	54.6%
CCOc1ccc(NC(=O)CSc2nnc(Cn3cnc4ccccc43)n2C)cc1	-2.4	2.4	-0.5	-4.5	0.8%
O=C(Nc1cc2c3c(c1)CC(=O)N3CCC2)c1ccc(Br)o1	-1.5	nt	11.5	nt	nt
COCCN(CC(=O)NCC1CCCO1)C(=O)CCC(=O)Nc1ccccn1 (configuration not stated)	5.5	1.0	0.7	nt	8.1%
Cc1cc(C)cc(NC(=O)C2CC3CCC2C3)c1 (configuration not stated)	38.6	nt	-0.5	nt	nt
Cc1cc(/C=C(\C#N)C(=O)NCc2cccs2)c(C)[nH]1	0.7	-18.2	-8.0	nt	-1.4%
CCCc1cc(=O)[nH]c(/N=C(/NC(=O)c2ccccc2)Nc2ccc3c(c2)OCCO3)n1	4.7	nt	-1.4	-12.9	-2.8%

Reprinted from the part before: 2 entries; new compounds follow.
SMILES	Mtb bLac sens	Arbovirus inh	RecA intein inh	YopH inh	Mtb growth	others
Cc1cc(/C=C(\C#N)C(=O)NCc2cccs2)c(C)[nH]1	0.7	-18.2	-8.0	nt	-1.4%
CCCc1cc(=O)[nH]c(/N=C(/NC(=O)c2ccccc2)Nc2ccc3c(c2)OCCO3)n1	4.7	nt	-1.4	-12.9	-2.8%
O=C1COc2ccc(C(=O)COC(=O)c3cnc(Cl)c(Cl)c3)cc2N1	1.9	-1.2	-3.3	nt	-2.6%
CCn1nc(C)c(Br)c1-c1nc(CS(=O)(=O)c2ccsc2)no1	-5.2	nt	3.0	nt	-3.5%
CCN1CCN(c2ccc(S(=O)(=O)N3CCCCC3)cc2NC(=O)Cc2ccc(OC)cc2)CC1	-15.4	nt	3.2	nt	nt
COCCn1c(SCC(=O)NC2CCCCC2)nc2c(c1=O)SCC2	-11.8	nt	-1.4	nt	nt
COc1cccc(OCCCn2cc(/C=C3/C(=N)N4C=C(C)SC4=NC3=O)c3ccccc32)c1	0.9	-5.0	-2.1	-20.2	-1.6%
O=[N+]([O-])c1ccc(CSc2nnc(-c3cccnc3)o2)cc1	-3.3	nt	-1.5	nt	nt
CC(C)C[C@H]1CN=C(Nc2ccccc2)N1CCC1CCCC1	6.6	nt	0.0	nt	nt
CC1CC1c1ccc(/C=C(\C#N)C(=O)Nc2cccc(Cl)c2Cl)o1 (configuration not stated)	1.3	3.2	-8.8	-14.0	nt
NS(=O)(=O)c1ccc(NCc2ccccc2OCc2ccc(F)cc2)cc1	1.7	7.1	15.7	-1.5	10.1%
CCOC(=O)C1CCN(C(=O)c2cc3cc4ccc(OC)cc4nc3o2)CC1	3.0	nt	-7.2	nt	nt
Cc1ccc(NC(=O)C2CC(=O)N(c3ccc4c(c3)OCCO4)C2)cc1S(=O)(=O)N1CCCCCC1 (configuration not stated)	6.5	nt	1.6	nt	nt
Cc1ccc(C(C)NC(=O)c2c(-c3ccccc3)noc2C)cc1C (configuration not stated)	-10.8	nt	-0.2	nt	nt
FC(F)Oc1ccccc1NC(=S)Nc1cccnc1	2.9	-1.2	1.6	nt	-0.2%
Cn1c(=O)n(CC(=O)NC2CCCCC2)c(=O)c2ccccc21	5.0	-8.6	0.5	-10.6	-1.3%
O=C(NCCOc1ccc(F)cc1)C1CCN(S(=O)(=O)c2ccccc2)CC1	?	nt	1.5	nt	nt
Clc1cccc(Sc2ccc(-c3ccccn3)s2)c1	-3.2	nt	nt	nt	3.3%
COC(=O)c1ccc(NC(=O)c2cccc(C)c2[N+](=O)[O-])cc1	-3.6	1.7	-2.6	nt	9.7%
Cc1cccnc1NC(=O)Nc1cccc(Cl)c1	1.3	nt	-1.8	nt	nt
CNC(=S)N(CCc1c(C)[nH]c2ccc(Cl)cc12)Cc1cccnc1	-8.4	nt	1.3	nt	nt
CC(C)c1ccc(C(=O)NCc2ccc(Cl)cc2)cc1	4.4	10.2	1.9	-26.5	9.5%
COCCOc1ccc(C(F)(F)F)cc1NC(=O)COC(=O)C1=COCCO1	-2.9	nt	-0.2	nt	nt
Cc1ccc2c(c1)NC(=O)C(CC(=O)NCCCN1CCCCC1C)O2 (configuration not stated)	-6.9	3.4	-2.1	-22.1	-4.5%	Arbovirus inh repeat=3.2
O=C(CNCc1ccco1)Nc1cccc(S(=O)(=O)N2CCCCC2)c1	-2.7	nt	-2.1	nt	-8.4%
Cn1c(N2CCN(C(=O)NC34CC5CC(CC(C5)C3)C4)CC2)nc2ccccc21	0.9	-6.9	2.3	-22.5	-15.5%

Part of the list above in order of formula weight, lowest first.
SMILES	Mtb bLac sens	Arbovirus inh	RecA intein inh	YopH inh	Mtb growth	others
Cc1ccc2c(c1)NC(=O)C(CC(=O)NCCCN1CCCCC1C)O2 (configuration not stated)	-6.9	3.4	-2.1	-22.1	-4.5%	Arbovirus inh repeat=3.2
CNC(=S)N(CCc1c(C)[nH]c2ccc(Cl)cc12)Cc1cccnc1	-8.4	nt	1.3	nt	nt
COCCOc1ccc(C(F)(F)F)cc1NC(=O)COC(=O)C1=COCCO1	-2.9	nt	-0.2	nt	nt

(more compounds)
SMILES	Mtb bLac sens	Arbovirus inh	RecA intein inh	YopH inh	Mtb growth	others
COc1ccc(O)c(C=Nc2cc(NC(C)=O)c(Cl)cc2Cl)c1	-6.2	-0.6	0.0	-31.0	-1.3%
Cc1ccc(S(=O)(=O)N2CCN=C2SCc2cccnc2)cc1	6.8	-5.3	-0.1	nt	nt
CCN(C(=O)CSc1nc2nc(C)cc(C)n2n1)c1ccccc1	2.9	-0.4	0.5	-20.3	-9.3%
CCC(C)NC(=O)Cn1nc(Cc2ccncc2)c2ccccc2c1=O (configuration not stated)	-0.2	nt	-1.5	nt	nt
Cc1ccc(C)c(C(=O)COC(=O)c2ccccc2N2C(=O)C3C4CCC(C4)C3C2=O)c1 (configuration not stated)	-6.9	9.0	1.9	1.3	-2.0%
O=C1CCCc2ccccc2N1Cc1ccc(Cl)cc1	-2.2	-5.6	3.7	-23.6	10.2%
COc1c(Cl)cc(C(=O)Nc2ccccc2C(=O)O)cc1Cl	-11.9	61.8*	3.1	-21.9	37.0%
O=C(O)c1ccc(NC(=O)c2cccc(S(=O)(=O)Nc3ccc(C(=O)O)cc3)c2)cc1	0.6	nt	1.5	nt	nt
CCCOc1ccc(S(=O)(=O)N2CCCC2)cc1[N+](=O)[O-]	-7.2	nt	-4.8	nt	4.1%
O=C(CSCc1ccccc1)Nc1cc([N+](=O)[O-])ccc1F	37.0	4.3	7.0	nt	4.1%
CCC(=O)Nc1ccc(NC(=S)NC(=O)Cc2ccccc2)cc1	92.2	3.0	-8.7	-22.1	-3.2%
O=C(CCCn1cnc([N+](=O)[O-])n1)Nc1ccc(Cl)cc1Cl	1.3	-12.0	1.3	-11.7	-0.2%
Cc1cc2c(cc1S(=O)(=O)Nc1ccc(OC(F)(F)F)cc1)OCC(=O)N2	-0.4	nt	2.0	nt	nt
Cc1nc(N2CCN(c3ccccn3)CC2)c2c(C)c(C(=O)Nc3ccccc3F)sc2n1	31.3	8.3	-4.2	nt	8.96µM*
Cc1nc(NC(=S)Nc2ccccc2)sc1C	89.0	3.5	4.5	nt	?
N#CC(c1ccc(Cl)cc1)c1ccc2c(C(F)(F)F)cc(C(F)(F)F)nc2n1 (configuration not stated)	98.1	-29.4	3.0	2.9	0.571µM*
O=C(O)C(Cc1ccccc1)NS(=O)(=O)c1ccc(Cl)cc1 (configuration not stated)	-7.0	nt	-0.6	nt	nt
CCOC(=O)c1cc2c(C)nn(-c3ccccc3)c2s1	44.9	-10.5	-3.4	-18.7	6.0%
O=C(c1ccc(CNS(=O)(=O)c2cccc(Cl)c2)cc1)N1CCCC1	1.2	2.1	0.1	nt	2.0%
O=c1[nH]c(NCCO)nnc1Cc1ccccc1	3.0	nt	-2.6	nt	nt
CCOC(=O)C1(Cc2cccc(OC)c2)CCN(Cc2ccc3c(c2)OCCO3)CC1	6.0	4.0	2.9	nt	-3.1%
Cc1ccc(NC(=S)Nc2ccc(S(=O)(=O)N3CCOCC3)cc2)cc1S(=O)(=O)N1CCOCC1	-0.2	18.9	-1.1	nt	5.1%
COC(=O)C1=C(C)N(CCCC(=O)O)C(=O)NC1c1ccc(-c2ccccc2)cc1 (configuration not stated)	-11.4	0.4	0.6	-20.0	-15.7%
COc1cc2[nH]c(=O)n(CCC(=O)NCCC(C)C)c(=O)c2cc1OC	?	7.3	-2.2	-2.8	2.9%
COc1ccc(-c2c[n+](CC(=O)c3cccs3)c3n2CCC3)cc1	-13.3	nt	-0.8	nt	2.2%
CC(=O)Nc1ccnn1C1CCN(C(=O)c2cccc(C)c2C)CC1	-2.5	nt	-0.9	nt	nt
NC(=O)COC(=O)c1ccccc1SCC(=O)NC1CCCCCC1	-2.8	11.3	-4.0	nt	-12.4%
COc1cccc(/C=N/Nc2ncnc3c2[nH]c2ccc(C)cc23)c1OC	-2.1	nt	-3.5	nt	6.5%
CC(CCc1ccccc1)NCC(O)c1cccc([N+](=O)[O-])c1 (configuration not stated)	-0.2	23.9	nt	nt	0.1%
COc1cccc(C=Nc2cccnc2)c1O	-9.7	-19.4	-0.8	-14.6	-5.6%
Cc1nc(CNS(=O)(=O)c2cccnc2)cs1	7.9	32.7*	1.0	-23.0	-8.1%
O=S(=O)(N/N=C\c1ccccc1O)c1ccc(Cl)cc1	3.8	nt	1.5	nt	nt
O=C(Nc1ccccc1C(=O)N1CCCC1)c1ccc(Cl)c([N+](=O)[O-])c1	-2.9	1.8	-0.3	nt	-5.8%
Cc1cc2c(=O)[nH]cnc2s1	-4.2	1.5	-6.6	-27.1	-10.4%
COc1ccc(C2c3c(nc(C)[nH]c3=O)Oc3c2c(=O)oc2ccccc32)cc1 (configuration not stated)	-7.0	nt	-1.5	nt	4.4%
CCOC(=O)N/N=C/c1cc(C)n(-c2ccccc2)c1C	-4.0	1.7	0.1	-16.7	5.9%
CCOC(=O)c1c(NC(=O)CSc2c[nH]c3ccccc23)sc2c1CCCC2	-8.0	-20.4	0.2	-32.3	4.2%
Cc1ccc(C)c(N2CCN(CCN3CCCCC3)CC2)c1	-5.2	nt	-0.6	nt	nt
Cc1csc(SCCn2c(N3CCOCC3)nc3c2c(=O)[nH]c(=O)n3C)n1	-0.7	1.2	-1.6	-25.3	3.0%
Nc1c2c(nc3sc4c(c13)CCCC4)CCCCC2	99.4	-5.0	-1.8	-2.6	?
COc1ccc(NC(=S)c2ccncc2)cc1	4.2	-5.1	0.4	-19.6	0.3%
CC(C)C[C@@H](COc1ccccc1)N1CCN(C)CCC1=O	-2.0	nt	-2.5	nt	nt
CC(=O)NC12CC3CC(C1)CC(C(=O)Oc1ccc(N(C)S(=O)(=O)c4cc(C)ccc4C)cc1)(C3)C2	-12.1	nt	-2.3	nt	nt
COc1ccccc1C1C(C#N)=C(N)Oc2c1oc(CO)cc2=O (configuration not stated)	-3.4	-4.5	-4.4	nt	-7.0%
COc1cccc(C2=NOC(C(=O)N3CCc4ccccc4C3)C2)c1 (configuration not stated)	?	3.2	5.1	-8.9	3.5%	Arbovirus inh repeat=2.2
COc1cc(C(=O)NCC(=O)NCCSc2ccc(Br)cc2)cc(OC)c1OC	-6.9	nt	-0.1	nt	nt
CCN(CC(=O)NCc1ccc(F)cc1)C(=O)/C=C/c1cccs1	-5.6	-0.1	-1.1	nt	0.4%
C/C=C\C=C/C(=O)Nc1cccc(C2=NOC3(C2)C[C@@H](C(N)=O)N(C(=O)c2ccccc2)C3)c1 (some centres not stated)	-6.9	nt	0.9	nt	-5.4%
CN(C)S(=O)(=O)c1ccc(C(=O)Nc2ccn(C)n2)cc1	-13.5	nt	-2.0	nt	nt
N#C/C(=C(/O)COC(=O)c1ccc(O)cc1)c1nc2ccccc2[nH]1	20.5	nt	1.5	nt	-5.1%
CN(CC1CCCO1)S(=O)(=O)c1ccc(C(=O)Nc2nnc(-c3ccccc3)o2)cc1 (configuration not stated)	?	nt	-2.0	nt	nt
CC(C)(C)c1ccc(C(=O)N2CCC(C(=O)NCc3ccco3)CC2)cc1	3.0	1.2	4.3	-28.4	-3.7%
O=C(CN1CCCCCC1=O)OCc1ncc(-c2ccccc2)o1	-7.6	2.9	1.3	-4.5	-12.0%

Screens deposited in PubChem BioAssay by several laboratories.
